Source: PubChem BioAssay
Cruzain noTriton: blocks cruzain activity in detergent-free assay. Potency, µM, without a hit: max response, negative = inhibition, hits mostly inhibitors. 200,000 compounds, 2.3% hits. purified cruzain, Z-FR-AMC fluorescence, no detergent. P25779. AID 1476;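 also: plate controls were enzyme without inhibitor for no effect and buffer without enzyme for full effect; nearly all actives have a fitted effect of over 40% in size; top concentration of the series not given in the record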
Target sequence (P25779 123-467 limits assumed): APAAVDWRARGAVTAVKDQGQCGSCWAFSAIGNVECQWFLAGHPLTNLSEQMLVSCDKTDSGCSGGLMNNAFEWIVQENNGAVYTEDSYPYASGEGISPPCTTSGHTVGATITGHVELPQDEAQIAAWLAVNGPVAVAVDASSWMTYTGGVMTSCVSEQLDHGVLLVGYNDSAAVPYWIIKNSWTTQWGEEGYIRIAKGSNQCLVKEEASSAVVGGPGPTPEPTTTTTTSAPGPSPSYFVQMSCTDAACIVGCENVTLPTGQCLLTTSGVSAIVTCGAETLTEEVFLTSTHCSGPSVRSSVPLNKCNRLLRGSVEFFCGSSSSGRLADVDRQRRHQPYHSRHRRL
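Purified cruzain at 1.5 nM, pre-incubated 15 min with compound at room temperature in 100 mM sodium acetate pH 5.5, 5 mM DTT, 0.00005% Triton X-100. Reaction started with 2 uM Z-FR-AMC; AMC fluorescence increase over 60 s gives rate.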
Cruzain inh Det: blocks cruzain activity in presence of Triton detergent. Potency, µM, for inactives: max response, negative = inhibition, usual class: inhibitors. P25779. purified cruzain, Z-FR-AMC fluorescence, 0.01% Triton. 200,000 compounds, 0.43% hits;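 also: plate controls were neutral wells for no effect and buffer without enzyme for full effect; nearly all actives have a fitted effect of over 40% in size; top concentration of the series not given in the record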
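15 min RT preincubation of 1.5 nM cruzain with compound, then 2 uM Z-FR-AMC added; kinetic AMC fluorescence, 60 s delta. Triton X-100 0.01%, pH 5.5.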
SARS PLpro yeast: SARS-CoV PLP inhibition in yeast; S. cerevisiae expressing SARS-CoV PLpro, growth rescue; control for the full effect not named in the record; Potency, µM (doses to about 32.9 µM), inactives show top-dose activity, positive = growth rescue; 330,000 compounds, 0.19% hits; AID 485353; active means well fitted rising curve with a large enough effect; inconclusive means small, poorly fitted or top-dose-only effect; inactive means no such curve, though single readings can be large or run the other way; also: 0% is about no effect; nearly all actives have a fitted effect of over 55% in size; growth read by luminescence after 48 h
RE007 growth inh: less growth of the S. pombe RE007 Vpr strain. S. pombe RE007 Vpr strain, BacTiter-Glo ATP luminescence, 24 h; control for the full effect not named in the record. Potency, µM (highest dose often 92.2 µM), inactives show at the top dose activity change, negative = less growth. 360,000 compounds, 0.21% hits. AID 651644; active = well fitted falling curve with a large enough effect; inconclusive = small, poorly fitted or top-dose-only effect; inactive = no such curve, though single readings can be large or run the other way;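 also: % is scaled to controls: 0 for no effect and ±100 for the full control effect; nearly all actives have a fitted effect of over 50% in size; the assay follows cell death caused by Vpr and the record does not say whether a fall means rescue or toxicity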
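Fission yeast strain RE007, carrying one chromosomally integrated HIV-1 vpr copy, was seeded at OD 0.01 in PMG+AL medium with 23 nL pinned compound. After 24 h at 30 °C and 99% humidity, viability was read by BacTiter-Glo luminescence.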
NS1 function inh: inhibitors of influenza NS1 protein function; S. cerevisiae slowed by influenza A NS1, growth recovery by OD600; Potency, µM (highest dose often 46.1 µM), for the others: at the highest dose activity, positive = more growth; 270,000 compounds, 0.4% hits; active means well fitted rising curve with a large enough effect; inconclusive means small, poorly fitted or top-dose-only effect; inactive means no such curve, though single readings can be large or run the other way; also: nearly all actives have a fitted effect of over 50% in size
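Growth recovery, yeast-based: influenza A NS1 expressed in S. cerevisiae causes slow growth, and suppressors are detected by OD600. The parent strain without NS1 is used as positive control.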
Lassa entry inh: blocks Lassa virus binding to or entry into cells; Lassa virus pseudotype entry inhibition, cell reporter; control for the full effect not named in the record; Potency, µM (series often up to 37.9 µM), for inactives: at the top dose activity change, negative = inhibition, actives largely listed as inhibitors; 300,000 compounds, 1.2% hits; active means well fitted inhibition curve with a large enough effect; inconclusive means small, poorly fitted or top-dose-only effect, or effect the other way; inactive means flat fitted curve, though single readings scatter; tested in HEK293 cells; also: % is scaled to controls: 0 for no effect and ±100 for the full control effect; nearly all actives have a fitted effect of over 50% in size; luciferase read-out
Marburg entry inh: inhibitors of Marburg virus binding or cell entry; AID 540276; Potency, µM (titrated, usually from 37.8 µM), inactives show at the top dose activity change, negative = inhibition, usual class: inhibitors; Marburg virus pseudotyped entry inhibition, cell reporter; control for the full effect not named in the record; about a third of the inactives were read at about 46 µM; 300,000 compounds, 1.8% hits; active = well fitted inhibition curve with a large enough effect; inconclusive = small, poorly fitted or top-dose-only effect, or effect the other way; inactive = flat fitted curve, though single readings scatter; tested in HEK293 cells; about a fifth of its hits are not listed in these tables; also: % is scaled to controls: 0 for no effect and ±100 for the full control effect; luciferase read-out
StopGo reporter: lowers the luciferase signal of an FMDV 2A StopGo reporter; human cells with a luciferase reporter of 2A StopGo recoding; control for the full effect not named in the record; Potency, µM (highest dose often 57.9 µM), inactives show at the highest dose signal change, negative = less light; 410,000 compounds, 1.2% hits; active = well fitted falling curve with a large enough effect; inconclusive = small, poorly fitted or top-dose-only effect; inactive = no such curve, though single readings can be large or run the other way; tested in HEK293T cells; also: % is scaled to controls: 0 for no effect and ±100 for the full control effect; nearly all actives have a fitted effect of over 45% in size; luciferase light after 4 h
* hit, by the source's call; ? = inconclusive; . = not tested or not shown; & = joins results of further samples; [ ] = dose if it differs, or a comment. Unless noted, calls follow the shape of the dose curve; as a rule, active = well fitted curve in the direction sought with a large enough effect; inconclusive = small, poorly fitted or top-dose-only effect, or another doubt; inactive = no such curve, though single readings can be large; an effect the other way counts as inactive or inconclusive. Potency is read from the fitted curve at half-maximal effect. Hits appear at their usual frequency; overall some 4.8% were active at least once.

SMILES	Cruzain noTriton	Cruzain inh Det	SARS PLpro yeast	RE007 growth inh	NS1 function inh	Lassa entry inh	Marburg entry inh	StopGo reporter
O=C(c1cc(-c2ccc(Cl)cc2)n(-c2ccc(Cl)cc2Cl)n1)N1CCOCC1	?	-7.5%	-3%	-18%	?	-1%	-1%	?
Cc1ccc(/C=N/NC(=S)NC2CCS(=O)(=O)C2)cc1 (stereo not drawn)	-1%	5.9%	0%	9%	12%	13%	-4%	.
CCC(C)NC(=O)CN(c1ccc2c(c1)OCO2)S(=O)(=O)c1c(C)n[nH]c1C (stereo not drawn)	-5%	1.3%	2%	-2%	?	.	.	-26%
COc1ccc(N2CCN(Cc3cc(=O)c(OCC(=O)Nc4ccccc4)co3)CC2)cc1	.	.	-4%	-21%	.	10%	0%	?
O=C(CS(=O)(=O)c1ccccc1)Nc1nnc(-c2cccs2)o1	.	.	14%	8%	.	-1%	-1%	-7%
Cc1ccc(S(=O)(=O)Oc2ccc(C)cc2/C=N/N=C2\NC(=O)C(C)S2)cc1 (stereo not drawn)	-6%	-11%	-2%	5%	-6%	14%	?	40%[activator]
COc1ccccc1-n1cnnc1SCC(=O)Nc1nc(C)c(Cl)cc1Cl	7%	6.5%	-1%	-1%	-3%	-22%	0%&0%	?
CCCCNC(=O)N1CCN(Cc2cccc(F)c2)CC1	.	.	-2%	2%	-2%	17%[46.1 µM]	-12%[46.1 µM]	3%
CCCCNC(=O)N(O)C1N(/N=C/c2ccccc2O)C(=S)SC1(C)C (stereo not drawn)	.	.	-1%	5%	-46%	?	?	18%
CCCCS(=O)(=O)N1CCCC(C(=O)Oc2ccccc2OC)C1 (stereo not drawn)	.	.	1%	8%	-3%	21%	-5%	-12%
CCS(=O)(=O)N1CCN(S(=O)(=O)c2ccc(Cl)s2)CC1	.	.	0%	14%	19%	.	.	-27%
CCC12CN3CCN(CC(C3)/C1=N\NC(=O)c1ccc(Cl)cc1)C2	.	.	-1%	15%	.	6%	26%[46.1 µM]	-13%
N=C(N)SCc1ccc(O)c([N+](=O)[O-])c1	.	.	0%	-11%	6%	.	.	-27%
COc1ccc(OC)c2sc(NC(=O)c3ccc(S(=O)(=O)N(C)C)cc3)nc12	?	-3.4%	6%	1%	3%	.	.	-7%
COc1ccc(Cl)cc1-n1c(C)cc(C(=O)OCC(=O)N2CC(=O)Nc3ccccc32)c1C	12%	-6.1%	-10%	-1%	?	?	?	0%
CCn1c(NCc2cc(OC)ccc2OC)nc2ccccc21	-4%	2.7%	0%	0%	-8%	-21%	-9%	40%[activator]
c1ccc(CN2CCC3(CCCc4ccccc43)CC2)cc1	-5%	3.9%	.	-13%	-18%	?	6.3µM*	?
CCN(CC)c1ccc(N2C(=O)/C(=C\c3cccs3)SC2=S)cc1	25µM*	-3.3%	3%	-10%	6%	3%	?	-5%
COc1ccc(Br)cc1CNC(=O)CN1C(=O)CSc2ccc(S(=O)(=O)N3CCOCC3)cc21	-2%	0.0%	.	.	.	?	.	-3%
Cn1c(=O)cc(OCC(=O)Nc2ccccn2)c2ccccc21	-2%	2.8%	6%	-2%	9%	7%	24%	31%[activator]
CC(=O)OCc1cnc(C)c2oc(=O)c(C(=O)Nc3ccc(F)cc3C)cc12	6%	-0.3%	.	.	.	-1%[46.1 µM]	.	-17%
COc1ccc(CN2C(=NC(=O)C3CCCO3)SC3CS(=O)(=O)CC32)cc1 (stereo not drawn)	.	.	-1%	3%	-9%	-1%[46.1 µM]	3%[46.1 µM]	-6%
CC1CCN(C(=O)CCc2nnc3ccc(NCCCN4CCCC4=O)nn23)CC1	.	.	7%	-19%	-3%	1%[46.1 µM]	8%[46.1 µM]	-12%
Cc1ccc(C(=O)OCC(=O)Nc2ccc3c(c2)OCCO3)cc1C	.	.	1%	-2%	.	-3%	18%	5%
Cc1ccc(-c2noc(CCCN3C(=O)c4ccccc4C3=O)n2)cc1	1%	-2.3%	3%	3%[3.69 µM]	-4%	0%	-1%	-1%
O=C(CN1CCN(S(=O)(=O)c2ccc(F)cc2)CC1)Nc1ccnn1C1CCCC1	.	.	-4%	0%	.	16%	-7%	-27%
COc1cc2occc2c2oc(=O)ccc12	-23%&-6%&-9%	1.2%&1.1%&0.4%	-10%	5%	-29%	10%	11%	-5%&1%&-8%
Cc1cccc(OCC(O)CN2C(C)(C)CC(O)CC2(C)C)c1 (stereo not drawn)	9%	-0.6%	.	3%	-1%	1%	8%	-11%
CCOC(=O)c1ccc2c(c1)nc(SCC(=O)N1CCCCC1)n2CC	4%	-3.0%	-11%	-1%	-10%	-25%	-13%	-12%
COc1ccc(NC(=S)Nc2ccccc2C(F)(F)F)cc1	.	.	8%	4%	10%	-17%[46.1 µM]	1%[46.1 µM]	20%
CC1CN(C(=O)COC(=O)c2cnc(Cl)c(Cl)c2)CC(C)O1 (stereo not drawn)	.	.	2%	2%	.	-13%	-3%	-23%
O=S(=O)(Nc1nc2ccccc2nc1Nc1cccc(S(=O)(=O)N2CCCCC2)c1)c1ccccc1	16µM*	-11%	7%	19%	-4%	?	?	?
Clc1cccc(OCc2nc(-c3ccncc3)no2)c1	.	.	-2%	4%	-1%	.	.	25%
Cc1ccc(CNC(=O)C2CCC(=O)N(CCc3ccccc3)C2)s1 (stereo not drawn)	.	.	-4%	-15%	-9%	.	.	1%
COc1ccc(/C=C/C(=O)OCC(=O)Nc2cc(C(N)=O)cc(C(N)=O)c2)cc1	.	.	-1%	-4%	4%	5%[46.1 µM]	6%[46.1 µM]	8%
CCCCOC(=O)c1ccc(NC(=O)C(=O)NCc2ccncc2)cc1	19%	-6.6%	-7%	3%	-2%	-15%	-14%	?
O=c1c2c(-c3ccc([N+](=O)[O-])cc3)ccnc2[nH]n1-c1ccccc1	.	.	-3%	4%	0%	.	.	-13%
O=C(NNC1CC(=O)N(c2ccc(Cl)cc2)C1=O)c1ccccc1Cl (stereo not drawn)	.	.	0%	4%	2%	?	2%	-10%
N#Cc1cccc(CN2CCC(=O)N([C@H](CO)c3ccccc3)CC2)c1	.	.	-2%	12%	0%	.	.	-4%
CCN1CCN(CC(=O)Nc2sc3c(c2C#N)CCC3)CC1	.	.	1%	-4%	9%	2%	-5%	-13%
Cc1cccc(CCNS(=O)(=O)c2ccc3c(c2)CCN3C(=O)CCC(=O)O)c1	.	.	6%	8%	9%	-3%[46.1 µM]	-24%[46.1 µM]	2%
COc1cc(/C=N/Nc2nc3ccccc3s2)cc([N+](=O)[O-])c1O	.	.	1%	4%	2%	.	.	34%[activator]
C=CCNC(=O)Nc1ccc(OCC)cc1	-4%	5.5%	1%	0%	-5%	42%	2%	6%
Cc1cc(=O)oc2cc(NC(=O)c3cc([N+](=O)[O-])ccc3N3CCOCC3)ccc12	.	.	3%	-8%	1%	.	?	-20%
CC(C(=O)N1CCN(C=O)CC1)N1C(=O)c2ccccc2C1=O (stereo not drawn)	9%	1.5%	-5%	15%	4%	7%	?	-2%
O=c1c2ccc(Cl)cc2[nH]c(=S)n1Cc1cccnc1	-28%	-0.1%	1%	2%	2%	?	3%	-7%
COC(=O)c1cc(Cn2nc(C(=O)O)c3ccccc3c2=O)oc1C	.	.	1%	8%	7%	2%[46.1 µM]	?	-20%
CC(=O)N1c2ccc(Cl)cc2C2OCCC2C1c1ccco1 (stereo not drawn)	.	.	-1%	65%	6%	5%	-27%	-26%
Cc1cc(C)cc(NC(=O)Cc2csc(C)n2)c1	-10%	-2.1%	.	.	.	-3%[46.1 µM]	6%[46.1 µM]	0%
Cc1cc(NC(=O)c2cc(-c3ccc(OC(C)C)cc3)nc3ccccc23)no1	.	.	-2%	0%	-7%	14%	12%[46.1 µM]	23%
Cc1onc(C(=O)N2CCN(c3ccccc3F)CC2)c1-c1ccccc1Cl	3%	-1.9%	5%	-3%	-14%	-21%	-3%	-27%
CNC(=O)OCC[N+](C)(C)C	-9%	4.7%	.	.	?	.	?	.
O=C(NC1CCN(Cc2ccccc2)CC1)C1CCCN(c2nnc(-n3cccc3)s2)C1 (stereo not drawn)	-3%	-2.3%	1%	-11%	-3%	.	.	?
COc1ccc(NC(=O)Nc2cnccn2)c(OC)c1	.	.	1%	-22%	-5%	.	.	22%
CCSc1cc(C2C(C#N)=C(N)OC(C)=C2C(=O)OC)c(C)o1 (stereo not drawn)	-14%	-6.9%	0%	?	-4%	-10%	26%	0%
O=C(NCc1ccc(F)cc1)c1ccc(S(=O)(=O)Nc2cccc(C(F)(F)F)c2)cc1	-6%	-8.3%	-27%	2%	3%	-20%	-18%	-10%
O=C(Cn1cc(C(=O)c2ccccc2)c(=O)c2cc3c(cc21)OCCO3)Nc1ccc(F)c(F)c1	9%	-5.2%	.	.	.	-2%[46.1 µM]	7%[46.1 µM]	?
COc1ccc(/C=N/NC(=O)c2ccco2)cc1COc1ccc(F)cc1	.	.	-1%	1%	7%	.	.	-19%
CCN(CCCNC(=O)CCn1c(=O)[nH]c2ccccc2c1=O)c1ccccc1	-2%	4.1%	0%	-13%	-7%	1%	-18%	-6%
COc1ccccc1-c1ocnc1C(=O)Nc1ccc(N2CCOCC2)cc1N1CCOCC1	.	.	0%	-4%	-12%	15%	15%[46.1 µM]	-21%

(next part)
SMILES	Cruzain noTriton	Cruzain inh Det	SARS PLpro yeast	RE007 growth inh	NS1 function inh	Lassa entry inh	Marburg entry inh	StopGo reporter
Cc1ccc(C)c(N(CC(=O)NC2CCCC2)C(=O)CCC(=O)Nc2nccs2)c1	.	.	2%	-19%	0%	-4%	6%[46.1 µM]	9%
CSc1ccc(CN2CCN(CC=C(C)C)C(CCO)C2)cc1 (stereo not drawn)	.	.	0%	14%	9%	-1%	-11%[46.1 µM]	-9%
O=C(Cc1ccccc1F)NNC(=O)c1cccs1	.	.	-2%	-23%	.	17%[46.1 µM]	5%[46.1 µM]	43%[activator]
COc1ccc(CC2(CO)CCN(Cc3ccncc3)CC2)cc1	.	.	-1%	-2%	-3%	1%	25%[46.1 µM]	-12%
CN(C)CCCN=Cc1c(O)n(CCc2ccccc2)c(=O)[nH]c1=O	-3%	-1.7%	3%	13%	-3%	-1%	-12%	-18%
